TRPV1 potentiator: human TRPV1 potentiation; potentiation, % at 8.33 µM; TRPV1-expressing cells, Fluo-8 calcium influx, capsaicin EC20 potentiation; host cell line not named in the record; control for the full effect not named in the record; actives 0.02% (n = 320,000); active means potentiation above 80%; inconclusive means 30% to 80%; inactive means below 30%; note: 0% is about no effect
Target sequence (Q8NER1 whole entry, looked up): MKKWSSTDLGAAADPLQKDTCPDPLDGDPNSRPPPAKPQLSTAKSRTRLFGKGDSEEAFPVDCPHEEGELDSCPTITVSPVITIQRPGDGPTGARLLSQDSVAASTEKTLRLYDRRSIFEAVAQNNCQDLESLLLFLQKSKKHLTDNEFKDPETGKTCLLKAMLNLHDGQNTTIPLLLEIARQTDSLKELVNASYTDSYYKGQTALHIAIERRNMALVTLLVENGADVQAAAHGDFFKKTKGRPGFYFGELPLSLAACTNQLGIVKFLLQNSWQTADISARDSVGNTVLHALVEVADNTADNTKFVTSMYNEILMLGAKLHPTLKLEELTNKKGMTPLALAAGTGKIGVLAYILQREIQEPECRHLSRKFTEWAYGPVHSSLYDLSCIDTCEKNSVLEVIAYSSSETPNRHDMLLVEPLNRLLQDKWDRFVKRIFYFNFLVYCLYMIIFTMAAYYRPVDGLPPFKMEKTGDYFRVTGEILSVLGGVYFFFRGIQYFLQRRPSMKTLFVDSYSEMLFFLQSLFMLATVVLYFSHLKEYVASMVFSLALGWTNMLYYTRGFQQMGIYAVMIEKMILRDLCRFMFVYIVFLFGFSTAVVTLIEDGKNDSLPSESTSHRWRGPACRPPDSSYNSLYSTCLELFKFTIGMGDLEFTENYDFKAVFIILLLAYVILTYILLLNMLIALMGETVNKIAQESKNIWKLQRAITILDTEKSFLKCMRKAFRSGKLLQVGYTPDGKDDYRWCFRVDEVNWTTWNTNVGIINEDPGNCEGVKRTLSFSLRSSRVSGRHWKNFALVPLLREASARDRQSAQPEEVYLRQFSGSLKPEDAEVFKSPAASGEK
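TRPV1-expressing cells were cultured overnight at 35.5C and loaded with Fluo-8 calcium dye for 40 to 90 min at room temperature. After a 10 s baseline, compound was added and calcium influx was read kinetically for 3 min (ex 480/em 520 nm).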
ClpP mod: qHTS Assay for Activators of ClpP; actives 1.9% (n = 340,000); ATP-dependent Clp protease proteolytic subunit (Bacillus subtilis (strain 168)), P80244; Potency, µM (titrated, usually from 57.5 µM), inactives show top-dose activity change, negative = active; purified B. subtilis ClpP, FRET peptide cleavage, 20 min; active = well fitted falling curve with a large enough effect; inconclusive = small, poorly fitted or top-dose-only effect; inactive = no such curve, though single readings can be large or run the other way; note: potency is the fitted concentration of half-maximal effect; the source files actives as falling curves though it sought activators and does not explain the sign; nearly all actives have a fitted effect of over 65% in size; many hits overshoot -100%
Target sequence (P80244 whole entry, looked up): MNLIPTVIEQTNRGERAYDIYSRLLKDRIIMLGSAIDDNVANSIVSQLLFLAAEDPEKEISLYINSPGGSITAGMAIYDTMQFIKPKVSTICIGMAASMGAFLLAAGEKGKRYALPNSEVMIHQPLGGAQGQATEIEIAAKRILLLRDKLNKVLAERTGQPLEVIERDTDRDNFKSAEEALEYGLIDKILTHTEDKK
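FRET quenching reversal measured ClpP activation: 10 microg/mL B. subtilis ClpP at pH 8 with the FRET-FV decapeptide, read at 430 nm after 320 nm excitation. The 20-min minus 0-min signal was scaled between DMSO/no-enzyme wells and ADEP (5.8 microM final).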
gsp ag: gsp mutant agonism. gsp mutant cells, cAMP HTRF, 30 min; control for the full effect not named in the record. Potency, µM (titrated, usually from 76.9 µM), inactives show top-dose activation (cAMP increase), hits mostly activators. actives 0.13% (n = 340,000). AID 624287; active = well fitted activation curve with a large enough effect; inconclusive = small, poorly fitted or top-dose-only effect, or another doubt; inactive = no such curve, though single readings can be large or run the other way; cell line not stated here;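 note: phosphodiesterase inhibitor Ro 20-1724 added with compounds to block cAMP breakdown; potency is the fitted concentration of half-maximal effect; nearly all actives have a fitted effect of over 60% in size; about a fifth of the inactives were tested at one dose only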
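Cells in DMEM/10% FBS with G418 were pretreated with compounds in DMSO plus […] (300 uM stock) for 30 min at 37C. cAMP was measured by HTRF (cAMP-d2 plus anti-cAMP antibody-K) after 30 min at room temperature.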
TRPML1 blocker: inhibitors of human TRPML1 channel; activity change, negative = inhibition, % (test concentration not listed); TRPML1-inducible cells, Ca2+ dye fluorescence, FDSS; stronger effect = lower value; inhibition of EC80 agonist-evoked calcium signal; actives 0.02% (n = 390,000); Q9GZU1; AID 624415; in the data active means activity change below about -50%; inconclusive means about -30% to -50%; inactive means above about -30%;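 note: stimulus is agonist 54-4 at its EC80 concentration; % is set by controls: 0 for no effect and ±100 for the full control effect; compound concentration not given in the record; the text of the record puts the active cut at -80%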
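Calcium fluorescence in TRPML1-DL cells induced overnight with Tet: a 110 s read after compound pin addition, then a 110 s antagonist read after challenge with 54-4 at 4 uM final (EC80).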
gsp antagonist: antagonists of gsp mutant (McCune-Albright syndrome). Potency, µM (series often up to 76.9 µM), inactives show at the highest dose activity change, negative = inhibition, actives largely listed as inhibitors. actives 0.4% (n = 340,000). gsp-mutant cells, cAMP HTRF, 30 min; control for the full effect not named in the record; active = falling curve of any shape with a large fitted effect; inconclusive = falling curve, mostly with a smaller effect; inactive = flat or rising curve; cell line not stated here;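 note: intracellular cAMP measured with PDE inhibitor Ro 20-1724 present during compound exposure; potency is the fitted concentration of half-maximal effect; % is set by controls: 0 for no effect and ±100 for the full control effect; nearly all actives have a fitted effect of over 65% in size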
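HTRF cAMP read-out (cAMP-d2 plus anti-cAMP antibody-K in lysis buffer, 30 min RT). Before lysis, cells are exposed to compounds with […] for 30 min at 37C in DPBS containing Ca/Mg, BSA and Tween 20.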
Menin-MLL FL inh: displaces fluorescein MLL peptide from human menin; FP activity change, % at 61.4 µM; Fluorescence polarization, fluorescein-MLL peptide displacement from menin; 290,000 tested, under 10 active; inconclusive = falling polarisation curve, or a change in total fluorescence; inactive = total fluorescence flat and polarisation flat or rising; no compound was filed as active; the % refers to the polarisation; negative = inhibition;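 note: % of control where 0% means no effect; inhibitors lower the polarisation; unlabelled MLL peptide was the positive control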
Sfp inh: inhibitors of Bacillus subtilis Sfp phosphopantetheinyl transferase. Q9F4F7. Biochemical Sfp PPTase activity, qHTS. Potency, µM, inactives show max response, negative = inhibition, most hits filed as inhibitors. actives 3.5% (n = 310,000); active = well fitted inhibition curve with a large enough effect; inconclusive = small, poorly fitted or top-dose-only effect, or another doubt; inactive = no such curve, though single readings can be large or run the other way;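 note: the enzyme is Sfp with the accession as filed and its product quenches rhodamine fluorescence; potency is the fitted concentration of half-maximal effect; 0% = enzyme reaction without inhibitor and -100% = no enzyme wells; top concentration of the series not given in the record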
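Fluorescence-quenching assay: 15 nM Sfp-PPTase preincubated 15 min at room temperature with compound, then 5 uM rhodamine-CoA and 12.5 uM BHQ-2-labelled YbbR peptide added. Fluorescence (ex 525/em 598 nm) read at start and after 30 min; difference gives rate.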
Starred values were filed as active, the others as inactive; ? = inconclusive; · = no result given; & = joins results of further samples; [ ] = another dose, or the depositor's remark. Hits appear at their usual frequency. Share with any hit: about 4.9%.

Structure,TRPML1 blocker,gsp antagonist,gsp ag,Sfp inh,Menin-MLL FL inh,TRPV1 potentiator,ClpP mod
CCOC(=O)C1=C(C)NC(=O)NC1c1cc2c(cc1Br)OCO2 (configuration not stated),8,7%,-42%[inhibitor],2%,23,1,0.9%
CC(=O)c1ccccc1C(=O)N(C)C1CCCN(Cc2ccccc2F)C1 (configuration not stated),14,3%,2%[15.4 µM],-6%,-3.8,23,-1.5%
COc1ccc(OC)c(NC(=O)NNC(=O)c2cc3occc3[nH]2)c1,-3,2%,-21%,-1%,4.8,8,0.8%
Cc1ccc(N(CCC#N)C(=O)COC(=O)c2cc(C)oc2C)cc1,0,12%,-5%,·,·,3,1.2%
CC1CCN(S(=O)(=O)c2ccc(S(=O)(=O)N3CCN4CCCC4C3)cc2)CC1 (configuration not stated),·,·,·,17%,-5.6,-5,·
COc1cccc(-c2cc(C(=O)O)c3cc4ccccc4cc3n2)c1OC,13,·,-19%,·,·,·,-20%
Cc1ccc(-c2nc(CN(C)C)cc(CN(C)C)c2O)cc1,13,13%,2%,-1%,3.0,-2,?
Nc1cc(S(=O)(=O)N2CCCCC2)ccc1N1CCCCC1,-11,-4%,-18%,·,·,13,-5.0%
NC(=O)c1ccsc1NC(=O)CCS(=O)(=O)c1ccccc1,-8,-7%,3%[15.4 µM],11%,1.0,27,0.1%
O=C(NCC(=O)N1CCN(S(=O)(=O)c2ccccc2F)CC1)c1ccc2c(c1)OCO2,24,-2%,-11%[15.4 µM],·,·,-5,·
CCOC(=O)C1CCCN(C(=O)C2CCN(S(=O)(=O)c3c(C)noc3/C=C/c3ccccc3F)CC2)C1 (configuration not stated),-2&-13,-17%,-46%[inhibitor],5%,-0.1,-13,-11%&-25%
CCOC(=O)c1c(C)[nH]c(O)c1C=Nc1ccc(C(F)(F)F)cc1,-11,7%,0%,-9%,2.5,·,-0.6%
O=C(c1ccc(CS(=O)(=O)c2c(Cl)cccc2Cl)o1)N1CCCC1,0,-10%,-35%[inhibitor],16%,-3.0,-14,-25%
Cc1ccc(C(=O)CN2C(=O)NC3(CCCCCC3)C2=O)c(C)c1,20,12%,-43%[inhibitor],·,·,-1,-0.6%
C(=N\c1nc2ccccc2n1Cc1ccccc1)/c1cccs1,8,-13%,6%,7%,0.7,1,-0.6%
CCc1nn(CC(=O)NCCCN2CCN(C)CC2)c(=O)c2cc3sccc3n12,13,14%,?,11%,·,-9,?
CN(C)S(=O)(=O)c1ccc(C(=O)OCc2ccc([N+](=O)[O-])cc2)cc1,73,-11%,-20%,-8%,1.6,2,-0.4%
Cc1ccc(C(=O)N/N=C/c2nc3ccccc3n2C)cc1,0,9%,13%,-26%,4.2,-3,-3.5%
Cc1ccc(NC(=O)c2ccc(COc3ccc4c(c3)CCC4)cc2)c(C)c1,?,-4%,?,23%,0.4,5,-4.1%
O=C1OCCC1Sc1nnnn1-c1ccccc1 (configuration not stated),1,8%,4%,5%,1.4,4,-0.6%
Cc1ccccc1NP1(=O)OCCCN1Cc1ccccc1Cl (configuration not stated),-1,11%,-1%,·,·,·,2.8%
COc1ccc(CCNS(=O)(=O)c2c(C)[nH]c(C)c2C(=O)N2CCCCC2)cc1OC,-30,-4%,?,13%,-2.0,0,1.8%
O=C1C2C(c3ccccc3)C=CC(c3ccccc3)C2C(=O)N1CCO (configuration not stated),-5,-1%,15%,11%,-0.9,-9,-1.9%
O=C1c2cccc3cc([N+](=O)[O-])cc(c23)C(=O)N1c1nncs1,-18,-2%,-1%,·,·,·,·
Fc1ccc(NC(=S)Nc2ccccc2Cl)cc1,53,16%,-15%[15.4 µM],8%,-4.6,-8,·
COc1cccc(C2=NOC(C(=O)Nc3ccc4c(c3)OCO4)C2)c1 (configuration not stated),-9,-1%,0%,9%,-0.9,4,0.6%
CN(C(=O)c1ccccc1C(=O)OCC(=O)Nc1cccc(Br)c1)c1ccccc1,9,-18%,-13%,·,·,3,-2.0%
CC(=O)NC1=NN(C(C)=O)C(c2ccc(C)cc2)S1 (configuration not stated),-3,7%,-4%[15.4 µM],9%,1.3,-1,-1.4%
O=C(COC(=O)c1cc(S(=O)(=O)N2CCCCC2)ccc1Cl)NC1CCCCC1,-3,·,-58%[inhibitor],·,·,·,1.3%
OC(c1ccccc1)C(CN1CCOCC1)c1ccccc1 (configuration not stated),3,6%,5%[15.4 µM],9%,0.3,-3,·
CC1CC(C)CN(S(=O)(=O)c2ccc(C(=O)OCC(=O)NCCN3C(=O)CSC3=O)cc2)C1 (configuration not stated),2,-25%,-6%[15.4 µM],-8%,0.3,5,·
Cc1ccc2nc(SCCC(=O)O)cc(C)c2c1,-24,2%,0%,2%,-0.6,0,-19%
Cc1ccc(CN2C(=O)C(C)Nc3ncnc(N4CCOCC4)c32)cc1 (configuration not stated),12,8%,6%,·,·,0,-3.3%
Cc1cccc(C)c1NC(=O)C(=O)NCCc1c[nH]c2ccccc12,-15,5%,?,15%,2.7,4,·
CN(CC(=O)Nc1c(Cl)cccc1Cl)C(=O)c1ccc2ccccc2n1,26,2%,-5%,·,·,2,-2.8%
O=C(O)c1cccc(Nc2c3ccccc3nc3ccccc23)c1,·,-5%,-7%,2%,-2.2,-13,4.5%
CCOc1ccccc1C1CC(c2ccc(Cl)cc2)Nc2nc(N)nn21 (configuration not stated),-1,-1%,20%,-13%,1.2,·,-5.9%
Cc1cc(C)cc(NC(=O)c2ccc(NC(=O)C3C4CC5OC(=O)C3C5C4)cc2)c1 (configuration not stated),-23,2%,0%[15.4 µM],21%,-1.9,-25,32µM*
Cc1ccnc(NS(=O)(=O)c2ccc(NC(=O)C3CCCCC3C(=O)O)cc2)n1 (configuration not stated),13,2%,?,19%,-0.4,-1,-24%
CSc1ccc(C2=CC(=O)C[C@H](c3ccc4c(c3)OCO4)C2)cc1,25,3%,-1%,·,·,-6,-2.6%
CCOC(=O)[C@H]1[C@H]2COc3ccccc3[C@@H]2N2C(=O)c3ccc(Cl)cc3NC(=O)[C@@]12C,2,-16%,·,·,·,-9,0.8%
CC(OC(=O)c1cccc(S(=O)(=O)N(C)C)c1)C(=O)NCc1ccc2c(c1)OCO2 (configuration not stated),4,2%,-33%[inhibitor],·,·,2,-0.8%
O=C(COC(=O)c1ccccc1NCCO)NNC(=O)c1cccs1,-16,7%,-14%[15.4 µM],·,·,9,·
O=C(O)c1ccc(N2C(=O)CCCC2=O)cc1,-7,-3%,-3%,10%,-1.0,7,-1.0%
COc1ccc(Cc2nc(C)cc(Cl)n2)cc1[N+](=O)[O-],2,7%,-4%[15.4 µM],5%,-1.8,3,-0.1%
CCN1CCC(O)(/C=C/c2ccc(C(C)C)cc2)C(C(=O)/C=C/c2ccc(C(C)C)cc2)C1 (configuration not stated),-8,-1%,-9%,·,·,·,-2.4%
Cc1occc1C(=O)NC(C)C(C)(C)C (configuration not stated),11,-1%,13%,-10%,-0.7,-17,-3.3%
Cc1ccc(CSCC(=O)N/N=C/c2sccc2C)cc1,56,-14%,-36%[inhibitor],4%,0.0,-15,-0.8%
O=C(CNc1n[nH]c(=O)[nH]c1=O)N/N=C/c1cccnc1,-4,10%,-43%[inhibitor],9%,-1.2,5,0.9%
CCOC(=O)N1CCN(C(=O)c2cc3ccc(OC)cc3[nH]2)CC1,21,-5%,-1%,16%,-1.5,15,·

(further entries)
Structure,TRPML1 blocker,gsp antagonist,gsp ag,Sfp inh,Menin-MLL FL inh,TRPV1 potentiator,ClpP mod
O=C(CSc1nncn1-c1ccccc1F)NC1CC1,-3,17%,1%,·,·,·,·
CCSc1nnc(NC(=O)c2ccc(Br)s2)s1,9,-8%,26%,4%,-0.5,-9,-2.0%
CN(C(=O)c1cccc(NC(=O)Cc2ccc(NC(=O)C3CCN(C(=O)C4CCCC4)CC3)cc2)c1)C1CCCC1,12,4%,·,·,·,·,-1.7%
CCOC(=O)C1CCN(C(=O)/C=C/c2cccs2)CC1,18,0%,3%,22%,-1.6,3,·
O=C(CSc1nc2ccccc2s1)N1c2ccccc2Sc2ccc(Cl)cc21,14,-5%,13%,1%,-4.2,3,-4.1%
CCCCOCCCNC(=O)N[C@@H](CCSC)C(=O)OC,-18,12%,-38%,11%,2.1,-7,-1.0%
CC(C)Cn1c(N)c(C(=O)CSc2nc3ccccc3n2C)c(=O)n(C)c1=O,-9,-4%,2%,9%,2.5,-2,-1.0%
S=c1[nH]nc(-c2ccco2)n1/N=C/c1cccc(Cl)c1Cl,-12,-16%,?,1%,1.5,3,-1.4%
O=C(CN1CCN(Cc2ccccc2)CC1)Nc1ccc(N2CCOCC2)cc1,-1,12%,12%[15.4 µM],-3%,-1.0,?,·
CSc1nccc(Oc2ccc(C#N)cc2)n1,5,5%,-46%[inhibitor],13%,1.7,16,·
CCCN1Cc2cccc(C(=O)Nc3ccc(OC)c(OC)c3)c2C1=O,65,2%,9%[15.4 µM],·,·,·,·
COc1cccc(C=Nc2cc(C)cc(C)c2)c1O,3,12%,-61%[inhibitor],11%,5.0,-8,1.0%
O=C1C2C3C=CC(C3)C2C(=O)N1c1ccc(-c2nc3ccccc3o2)cc1 (configuration not stated),-1,-4%,27%,-12%,2.1,-5,6.3µM*
CCOc1cccc2sc(NC(=O)CC)nc12,10,3%,2%,19%,2.6,-8,-0.6%
COc1ccccc1N1CCN(C(=O)NCc2cccc(C(F)(F)F)c2)CC1,?,1%,-33%,-4%,1.5,-3,·
Cc1ccc(S(=O)(=O)CCSc2cccc(C(=O)O)c2)cc1,-1,-6%,-64%[inhibitor],-8%,0.0,10,-0.7%
CCOC(=O)N(NC(=O)C(O)(c1ccccc1)c1ccccc1)c1ccccc1,0,5%,-8%,2%,2.0,-10,0.3%

Compound activity from PubChem.
